GCN5L2 inh: GCN5L2 (KAT2A) acetyltransferase inhibition | AID 504327 | 390,000 compounds, 0.21% hits | GCN5L2 HAT assay, ThioGlo1 CoA-SH fluorescence | Potency, µM (series often up to 58.9 µM), inactives show top-dose activity change, negative = inhibition, hits mostly inhibitors; active = well fitted inhibition curve with a large enough effect; inconclusive = small, poorly fitted or top-dose-only effect, or another doubt; inactive = no such curve, though single readings can be large or run the other way
Target sequence (Q92830 whole entry, looked up): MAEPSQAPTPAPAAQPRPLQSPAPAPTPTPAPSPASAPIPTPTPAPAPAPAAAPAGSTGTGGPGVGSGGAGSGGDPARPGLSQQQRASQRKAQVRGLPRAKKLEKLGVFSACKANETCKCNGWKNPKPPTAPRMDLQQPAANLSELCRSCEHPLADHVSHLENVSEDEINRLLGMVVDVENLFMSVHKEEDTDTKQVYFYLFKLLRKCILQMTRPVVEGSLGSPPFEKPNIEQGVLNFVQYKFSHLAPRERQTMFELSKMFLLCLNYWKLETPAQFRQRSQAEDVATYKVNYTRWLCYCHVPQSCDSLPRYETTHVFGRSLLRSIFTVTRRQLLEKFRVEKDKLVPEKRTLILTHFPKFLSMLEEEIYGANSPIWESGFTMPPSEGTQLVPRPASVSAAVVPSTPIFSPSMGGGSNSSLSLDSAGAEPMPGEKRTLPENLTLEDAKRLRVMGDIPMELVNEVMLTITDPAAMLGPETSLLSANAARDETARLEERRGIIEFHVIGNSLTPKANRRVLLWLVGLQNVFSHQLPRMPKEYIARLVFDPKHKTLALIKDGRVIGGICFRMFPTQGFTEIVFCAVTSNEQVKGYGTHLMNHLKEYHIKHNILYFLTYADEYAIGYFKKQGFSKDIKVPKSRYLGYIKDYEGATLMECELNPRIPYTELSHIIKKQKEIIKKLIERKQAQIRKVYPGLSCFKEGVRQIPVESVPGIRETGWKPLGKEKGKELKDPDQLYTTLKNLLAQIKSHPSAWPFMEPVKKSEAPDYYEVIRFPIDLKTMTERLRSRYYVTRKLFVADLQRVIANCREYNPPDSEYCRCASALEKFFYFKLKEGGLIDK
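Titration-based screen in which CoA formation is detected via maleimide probe ThioGlo1 (50uM) turning fluorescent on thiol reaction; substrates H3(1-25) 75uM and acetyl-CoA 70uM, GCN5L2 20nM, 20 min incubation at room temperature.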
* marks the source's active call; other numbers are inactive results; ? = inconclusive; & = joins results of further samples. % is scaled to controls: 0 for no effect and ±100 for the full control effect; potency is read from the fitted curve at half-maximal effect.

C[C@]12CC[C@H]3[C@@H](CC=C4C[C@@H](O)CC[C@@]43C)[C@@H]1CC[C@@H]2O
  GCN5L2 inh = -3.6%

O=C(Cc1ccc(Cl)c(Cl)c1)NCC1(N2CCOCC2)CCCCC1
  GCN5L2 inh = -7.0%

CNC(C)[C@@H](O)c1ccccc1 (stereo partly specified)
  GCN5L2 inh = -8.7%

N#CC(Br)Br
  GCN5L2 inh = 0.8%

CN[C@@H]1C[C@@H](c2ccc(Cl)c(Cl)c2)c2ccccc21
  GCN5L2 inh = -3.8%&-4.4%&-6.9%

Cc1sc2ncn(CC(=O)NCCCC(=O)N3CCC4(CC3)OCCO4)c(=O)c2c1C
  GCN5L2 inh = 0.2%

Oc1ccc(Cl)cc1Cc1cc(Cl)ccc1O
  GCN5L2 inh = ?

COc1ccc(CNC(=O)C(NC(C)=O)C(C)C)cc1OC (stereo unspecified)
  GCN5L2 inh = 0.3%

COc1cccc(-n2c(O)c(C=NCc3ccc4c(c3)OCO4)c(=O)[nH]c2=O)c1
  GCN5L2 inh = -19.2%

Cc1ccc(CN2C(=O)NC(=O)C3(Cc4c(nc5ccccn5c4=O)N4CCCCCC43)C2=O)cc1 (stereo unspecified)
  GCN5L2 inh = -3.9%

CCOC(=O)CC1=C(C(=O)OCC)C2(C(=O)N1CC(=O)OC)C(C#N)=C(N)Oc1ccccc12 (stereo unspecified)
  GCN5L2 inh = 0.8%

CC[N+](CC)(CC)CC
  GCN5L2 inh = -1.0%&-4.6%&-19.5%

C[C@@]12CCC(O)C[C@H]1CCC1C2CC[C@]2(C)C(=O)CCC12 (stereo partly specified)
  GCN5L2 inh = -1.7%

C[C@]12CCC(=O)C[C@@H]1CC[C@@H]1[C@@H]2CC[C@]2(C)[C@@H](O)CC[C@@H]12
  GCN5L2 inh = -1.1%&-7.9%

C#CCN(C)[C@H](C)Cc1ccccc1
  GCN5L2 inh = 11.6%&3.5%&-7.8%

CC(Cc1ccccc1Sc1ccccc1)N(C)C (stereo unspecified)
  GCN5L2 inh = -3.2%

CC(C)NCC(O)COc1cccc2[nH]ccc12 (stereo unspecified)
  GCN5L2 inh = -0.1%&2.1%

Ordered by length of the SMILES (lowest first): part of the list above.
CC[N+](CC)(CC)CC
  GCN5L2 inh = -1.0%&-4.6%&-19.5%

CC(Cc1ccccc1Sc1ccccc1)N(C)C (stereo unspecified)
  GCN5L2 inh = -3.2%

CC(C)NCC(O)COc1cccc2[nH]ccc12 (stereo unspecified)
  GCN5L2 inh = -0.1%&2.1%

CCOC(=O)CC1=C(C(=O)OCC)C2(C(=O)N1CC(=O)OC)C(C#N)=C(N)Oc1ccccc12 (stereo unspecified)
  GCN5L2 inh = 0.8%

Molecules shown so far that have a carbonyl joined to an NH by a bond outside any ring (three):
O=C(Cc1ccc(Cl)c(Cl)c1)NCC1(N2CCOCC2)CCCCC1
  GCN5L2 inh = -7.0%

Cc1sc2ncn(CC(=O)NCCCC(=O)N3CCC4(CC3)OCCO4)c(=O)c2c1C
  GCN5L2 inh = 0.2%

COc1ccc(CNC(=O)C(NC(C)=O)C(C)C)cc1OC (stereo unspecified)
  GCN5L2 inh = 0.3%

Source: PubChem BioAssay (National Center for Advancing Translational Sciences (NCATS))

Not all compounds are listed; most or all hits stand in other tables.
